Compound activity: PubChem BioAssay, ICCB-Longwood Screening Facility, Harvard Medical School
AID504770: growth inhibitors of E. coli YBA685 in a screen for V. cholerae RctB (chromosome II replication) inhibitors | AID 504770 | E. coli YBA685 rctB-dependent plasmid, OD600 growth, 3 h; stronger effect = lower value | hit rate 0.27% among 130,000 | z-score (test concentration not listed);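 active = z-score under -2 on both plates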;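 also: wells of about 30 µL received 100 nL stock; score is relative to mean and SD of the test wells; the first replicate is given; strong numbers were not always called active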
CapD inh: inhibitors of Bacillus anthracis CapD enzyme; AID 492967; hit rate 0.23% among 140,000; purified CapD enzyme, fluorescence intensity read-out; stronger effect = lower value; some hits fall short of the stated cut; z-score (concentration not given with the values);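 active = z-score under -4 in either of two replicates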;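 also: stock transfer was 100 nL into about 40 µL; score is relative to mean and spread of the plate; one replicate is shown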
* marks the source's active call; other numbers are inactive results; i = inactive; nt = not tested or not shown; & = joins results of further samples.

The line under a structure holds: AID504770 | CapD inh
N=Nc1c(O)[nH]c2ccccc12
→ nt | -0.745
CCN(c1ccccc1)c1cc(N2CCOCC2)c2nonc2c1[N+](=O)[O-]
→ nt | -0.425
N#C/C(=C\C=C\c1ccccc1)C(N)=S
→ 1.05 | -1.97
CCN(CC)CCn1c2ccccc2c2cnc(N)c(C#N)c21
→ 0.1 | 52.6
O=S(=O)(CCN(Cc1cccs1)C(=S)Nc1cccc(F)c1)c1ccc(Cl)cc1
→ -0.05 | 0.34
CSc1nsc(SCC(=O)NC(C)CCc2ccccc2)n1 (centres undefined)
→ 0.4 | nt
Oc1cc2c(cc1C(c1ccc(C(F)(F)F)cc1)N1CCCC1)OCO2 (centres undefined)
→ -1.4 | -1.06
N#CC(C#N)=NNc1ccc2c(c1)OCO2
→ -3.15 | nt
CCC(=O)N1CCN(c2ccc(NC(=O)COc3ccc(Cl)cc3Cl)cc2)CC1
→ -0.45 | 0.095
COC(=O)Cc1cc(=O)n(-c2ccccc2)[nH]1
→ -0.35&0.8 | -0.015
CC(=O)N1CCc2nc3ccncc3cc2C1
→ nt | 0.125
CCOC(=O)c1oc2ccccc2c1COC(=O)C1CSC2(C)CCC(=O)N12 (centres undefined)
→ 1.2 | nt
CC1(C)SC(=S)N(/N=C/c2ccc(Cl)cc2)C1N(O)C(=O)NC1CCCCC1 (centres undefined)
→ nt | -0.355
CC(Sc1nc2ncccc2o1)C(=O)N(C)c1ccc(F)cc1 (centres undefined)
→ 0.5 | 0.14
CCOc1ccc(NC(=O)CSC2=C(C#N)C(c3ccccc3C)C3=C(CCCC3=O)N2)cc1 (centres undefined)
→ nt | 8.04

The line under a structure holds: AID504770 | CapD inh
CCCn1c(NC(=O)c2ccc(OCc3c(C)noc3C)cc2)nc2ccccc21
→ 0 | nt
CN(C)S(=O)(=O)c1cccc(COC(=O)C2=NN(c3ccccc3)C(=O)CC2)c1
→ 0.05 | nt
O=C(OCc1ccco1)c1cc2cc(Br)ccc2oc1=O
→ -0.5 | -0.18
CC1CCC(NC(=O)N(CCCl)N=O)CC1 (centres undefined)
→ 0.15 | 2.21
CC(C)=NOC(=O)c1scc(S(C)(=O)=O)c1Cl
→ 0.85 | 0.78
CCOC(=O)c1sc2sc(C#N)c(C)c2c1C
→ nt | 0.12
OC(CN1CCCN(c2nc(-c3ccccc3)ns2)CC1)C(F)(F)F (centres undefined)
→ -0.75 | -0.355
CC1=Nc2ccccc2C(c2ccccc2)(c2ccccc2)O1
→ nt | -0.14
CCN1CCc2nc(NC(=O)CCc3ccccc3)sc2C1
→ 0.1 | nt
O=C1c2cccc3c(S(=O)(=O)N4CCOCC4)ccc(c23)N1C(=O)C1CCCCC1
→ -0.3 | nt
NCc1cn2ccccc2n1
→ 0 | 2.17
CC1CN(CCC(=O)Nc2ccc(Cl)cc2C(=O)c2ccccc2)CC(C)O1 (centres undefined)
→ 1.65 | 0.86
Cc1ccc(CNS(=O)(=O)c2ccc(C(C)(C)C)cc2)n1C
→ -0.55 | 0.365
Cc1c(C(=O)N2CCC(C)CC2)sc2ncnc(N3CCCCC3C)c12 (centres undefined)
→ nt | -0.175
Cc1sc2c(c1C)c(=O)n(Cc1ccccc1)c(=O)n2CC(=O)NC1CCCC1
→ -0.65 | 1.07

The line under a structure holds: AID504770 | CapD inh
CC(C)COc1ccccc1O
→ -0.75 | 0.36
CC(=O)OC(C)(C)C1Cc2cc3ccc(=O)oc3cc2O1 (centres undefined)
→ -0.25 | 65.8
COc1ccc(C2SCc3cc(C)c(C)cc3CS2)cc1
→ nt | -0.31
CCOc1cccc(C(=O)Nc2ccccc2C(=O)OC)c1
→ 1.35 | 0.315
Cc1[nH]c(=O)[nH]c(=O)c1S(=O)(=O)N1CCCC(C(=O)NCc2ccc3c(c2)OCO3)C1 (centres undefined)
→ 1.95 | -0.135
CC1CCC2(CC1)C(=O)N(S(=O)(=O)c1cccc(C(F)(F)F)c1)C(=O)N2C (centres undefined)
→ 0.45 | nt
CCc1nn(CC(=O)N2CC(C)CC(C)C2)c(=O)c2cc3sccc3n12 (centres undefined)
→ 0.5 | -0.27
CCOC(=O)/C(N=Nc1cccc([N+](=O)[O-])c1)=C(\C)O
→ nt | -2.5
CC(C)COc1ccc(/C=C2/SC(=Nc3ccccc3)N(N(C)C)C2=O)cc1
→ 1.6 | -0.445
NC(N)=NN=C1CCCCC1
→ 1.25 | 0.055
COc1cc(CCNc2ccc3nnc(-c4ccccc4)n3n2)cc(OC)c1OC
→ 1 | 0.25
COC(=O)c1ccc(S(=O)(=O)N2CCc3ccccc32)n1C
→ -0.05 | -0.02
O=C(COc1ccc2c(c1)C(=O)CC1(CCCCC1)O2)NCc1cccnc1
→ -0.4 | -0.46
O=c1[nH]nc2n1CCCC2
→ -0.05 | -0.06
CC1CCCN(C(=O)C23CCC(C)(C(=O)C2)C3(C)C)C1 (centres undefined)
→ -0.35 | -0.115

Single records, from the list above. Order of values: AID504770	CapD inh
CCOC(=O)/C(N=Nc1cccc([N+](=O)[O-])c1)=C(\C)O is listed as nt	-2.5
CC1CCC2(CC1)C(=O)N(S(=O)(=O)c1cccc(C(F)(F)F)c1)C(=O)N2C (centres undefined) is listed as 0.45	nt

The listing continues:
The line under a structure holds: AID504770 | CapD inh
O=C(NCc1ccco1)c1c[nH]n2c(=O)cc(C3CCNCC3)nc12
→ -1.3 | -0.225
COc1ccc(C(=O)CN2C(=O)CCSc3ccc(Cl)cc32)cc1
→ nt | -0.06
O=C(O)CNc1ncnc2c1oc1ccccc12
→ nt | 0.165
NNC(=O)CCn1c2ccc(Cl)cc2c2cc(Cl)ccc21
→ nt | 2.12
O=C1NC(=S)N/C1=C\c1ccco1
→ 2.65 | -0.525
CC(C)(C)C(=O)COC(=O)C1CCN(S(=O)(=O)c2cccs2)CC1
→ -0.15 | nt
COc1cc(C2Nc3ccc4ccccc4c3C3=C2C(=O)CC(C)(C)C3)ccc1OCc1ccccc1F (centres undefined)
→ nt | 1.67
Cc1ccccc1Nc1nc(C2(C)CC3(CC(COCC(C)C)OC3=O)C(=O)O2)cs1 (centres undefined)
→ nt | -0.09
O=C(CCn1c(=O)c2ccccc2n(CC(=O)NCCC2=CCCCC2)c1=O)NCc1ccc2c(c1)OCO2
→ -0.3 | 0.14
O=C(c1cnn(-c2ccccc2)c1)c1ccccc1O
→ -0.15 | -1.33
CCOc1cc2c(cc1C(=O)O)OC(C)C2 (centres undefined)
→ -0.05 | nt
CC1(C)CC(=O)C2=C(C1)NC(=O)C(C#N)C2c1ccccc1 (centres undefined)
→ 1.8 | -0.41
COc1ccc(Cc2c(O)nc(SC)n(-c3ccccc3)c2=O)cc1
→ 0.6 | -0.8
c1ccc2c(c1)oc1c(NCc3ccc4c(c3)OCO4)ncnc12
→ 1.55 | nt
Cn1nnnc1SCC(=O)NCc1cccc(C(=O)O)c1
→ 0.35 | 2.93

Some of the entries so far, as tab-separated lines.
SMILES	AID504770	CapD inh
O=C(c1cnn(-c2ccccc2)c1)c1ccccc1O	-0.15	-1.33
COc1ccc(Cc2c(O)nc(SC)n(-c3ccccc3)c2=O)cc1	0.6	-0.8
COc1ccc(C(=O)CN2C(=O)CCSc3ccc(Cl)cc32)cc1	nt	-0.06
Cc1ccccc1Nc1nc(C2(C)CC3(CC(COCC(C)C)OC3=O)C(=O)O2)cs1 (centres undefined)	nt	-0.09
CC1(C)CC(=O)C2=C(C1)NC(=O)C(C#N)C2c1ccccc1 (centres undefined)	1.8	-0.41
CC(C)(C)C(=O)COC(=O)C1CCN(S(=O)(=O)c2cccs2)CC1	-0.15	nt
c1ccc2c(c1)oc1c(NCc3ccc4c(c3)OCO4)ncnc12	1.55	nt

Remaining list, next part.
The line under a structure holds: AID504770 | CapD inh
CCOC(=O)C1=C(C)NC2=C(C(=O)C(C(=O)OCC)C(c3ccccc3OC)C2)C1c1ccc(OC)cc1OC (centres undefined)
→ nt | 7.58
O=C(Nc1ccccc1F)OC1CN2CCC1CC2 (centres undefined)
→ -0.75 | -0.19
Clc1ccc(Cn2c(-c3ccc(Cl)nc3)nc3ccccc32)c(Cl)c1
→ nt | 6.79
COc1ccc(/C(O)=C(\C#N)c2nc3ccccc3[nH]2)cc1
→ -0.4 | -0.32
COc1ccccc1NC(=O)c1ccc(-n2cccn2)nc1
→ -0.45 | -0.61
Cc1ccc(C=Nc2cccc3ccccc23)cc1
→ -0.8 | -0.145
COc1cccc2c1OC(c1ccccc1Cl)N1N=C(c3cccnc3)CC21 (centres undefined)
→ nt | -0.055
CN1C(=O)C(Cc2cccs2)C(=O)N(C)C1=O
→ -0.85 | nt
CCOc1ccccc1C1SCC(=O)N1CCN1C(=O)S/C(=C\c2ccc(F)cc2)C1=O (centres undefined)
→ -1.1 | nt
CCc1ccc(OCC(=O)OC2CCS(=O)(=O)C2)cc1 (centres undefined)
→ -0.05 | nt
Cn1c(SCc2nc3ccccc3c(=O)n2-c2ccc([N+](=O)[O-])cc2)nc2ccccc21
→ nt | -0.375
COc1ccc(CSc2nnc3c4c5c(sc4nc(SC)n23)COC(C)(C)C5)cc1
→ -0.1 | 81.4
CC(=O)Nc1ccc(S(=O)(=O)C(F)F)cc1
→ 0.65 | nt
COC(=O)c1cc2c(cc1Cl)N1CCCCCC1=NS2(=O)=O
→ 0.35 | nt
CCc1ccc2[nH]c(=O)c(C(c3nnnn3C3CCCC3)N(Cc3ccccc3)Cc3ccco3)cc2c1 (centres undefined)
→ -0.15 | nt

The line under a structure holds: AID504770 | CapD inh
CCC(CC)C(=O)Nc1c2c(nn1-c1ccc(Cl)cc1)CSC2
→ -0.45 | 0.055
c1ccc(CNC2=NCCCS2)cc1
→ 0.4 | nt
CCCCCn1nc(C(=O)O)c2ccccc2c1=O
→ -0.75 | nt
O=C(COc1ccc2c(=O)c(Oc3ccccc3Br)coc2c1)OCc1ccccc1
→ nt | -0.34
COc1ccc(Cn2c(C)ccc2C)cc1
→ -0.35 | 0.3
CC1CCN(CC(O)c2ccc3cc[nH]c3c2)CC1 (centres undefined)
→ -0.25 | 1.69
CC(=O)Nc1ccc(NC(=O)CN(CCc2ccccc2)S(C)(=O)=O)cc1
→ -0.45 | 0.32
Clc1ccc(CSc2ccccc2-n2cccc2)cc1
→ nt | -0.545
CCOC(=O)C(c1ccccc1)N1CCN(c2ccccc2F)CC1 (centres undefined)
→ -0.6 | 0.345
O=C1c2ccccc2C(=O)N1CC(=O)N1c2ccccc2Sc2ccc(C(F)(F)F)cc21
→ nt | 0.285
CC(=O)N1C(c2ccccc2)SC(C)(C)C1C(=O)O (centres undefined)
→ 0.3 | 0.25
CCN(c1ccccc1)C1SC(=O)NC1=O (centres undefined)
→ 0.5 | 0.015
CC(Sc1n[nH]c(-c2cccs2)n1)C(=O)N1CCCC1 (centres undefined)
→ 0.6 | nt
CC(=O)N1C=Cc2ccccc2C1c1c[nH]c2ccccc12 (centres undefined)
→ -0.75 | 0.095
CCN(CC)C(=O)c1cc2c(=O)c3cc(Cl)ccc3oc2nc1C
→ -1.05 | 0.74

The line under a structure holds: AID504770 | CapD inh
CC(=O)SC1CCS(=O)(=O)C1 (centres undefined)
→ 0.9 | -0.18
Cc1cc(C(=O)Cn2cc(C(F)(F)F)ccc2=O)c(C)n1Cc1ccco1
→ -0.55 | nt
CCC1CCCCN1c1nc(C)cc(C)n1 (centres undefined)
→ -0.05 | 2.89
CSc1oc(-c2cccs2)nc1S(=O)(=O)c1ccccc1
→ -0.75 | 6.5
O=C(CSc1ccc2nnc(-c3ccccc3)n2n1)Nc1ccccc1
→ -0.75 | 0.52
O=C(Cc1ccccc1)Nc1nnc(-c2ccccc2Cl)s1
→ -0.25 | i
CSc1sc(C(=O)NNC(=O)c2ccsc2)c2c1C1(CCC2)SCCS1
→ nt | -1.75
CC1CC(=O)NC2(C)N1c1ccccc1C2(C)C (centres undefined)
→ nt | -0.265
Nc1c(S(=O)(=O)c2ccc(Cl)cc2)cnc2cc(-c3ccccc3)nn12
→ nt | 11.7
CCN(CC)C(=O)C1CCCN(C(=O)Nc2ccccc2)C1 (centres undefined)
→ -1.8 | -0.69
CN(C)C(=O)Oc1nnc(SCCS(=O)(=O)c2ccc(F)cc2)n1C1CC1
→ -0.45 | 0.83
CCCN(CCC)C(=O)c1ccccc1Cl
→ -0.55 | 0.005
OC(CN1CCN(c2cccc(Cl)c2)CC1)Cn1c2ccccc2c2ccccc21 (centres undefined)
→ 0.25 | 0.23
Cc1cc(NC(=O)S(=O)(=O)c2ccccc2)ccc1NC(=O)c1ccco1
→ -0.25 | nt
CCOC(=O)c1c(C)n(-c2ccc(Cl)cc2)c2ccc(OC(=O)/C=C/c3ccccc3)cc12
→ nt | -0.32

The line under a structure holds: AID504770 | CapD inh
O=C(Cn1cccc1C(=O)c1ccccc1)NCCc1ccccc1
→ 0.4 | 0.065
CN(CCC#N)CC1Cc2ccccc2O1 (centres undefined)
→ 1.3 | nt
Cc1ccc(-c2ccc(=O)n(CC(=O)NC3CCCCC3C)n2)cc1 (centres undefined)
→ 0.6 | 5.65
CN(C)C=Nc1cnn(-c2ccccc2)c(=O)c1Cl
→ 1.25 | nt
CCCn1c(=O)n(Cc2c(C)noc2C)c(=O)c2c1nc(C(F)(F)F)n2CCOC
→ -0.3 | nt
COc1cc2c(cc1O)C(C)=NC(C)(C)C2
→ 0.05 | -1.56
CCCn1cc(SCC(=O)N2N=C(c3cccs3)CC2c2ccc(OC)cc2)c2ccccc21 (centres undefined)
→ 0.7 | -3.12
CCC(C)NC(=O)C1CCCN1S(=O)(=O)c1ccc2nc(-c3ccccc3)[nH]c2c1 (centres undefined)
→ -0.5 | 0.465
CCn1c(=O)n(CC(=O)Nc2cc(Cl)ccc2OC)c(=O)c2ccccc21
→ nt | -0.165
Cc1nnc(Nc2ccc(C(N)=O)cc2)c2ccccc12
→ 1.15 | -0.995

These rows are one share of the data, so the mix of outcomes need not match the whole.
